VACV Venus inh = inhibitors of vaccinia virus (Venus reporter) | Potency, µM (series often up to 36.5 µM), for inactives: at the highest dose activity change, negative = inhibition, actives largely listed as inhibitors | AID 720580 | Vaccinia virus Venus reporter expression, fluorescence | hit rate 0.46% among 330,000; active means well fitted inhibition curve with a large enough effect; inconclusive means small, poorly fitted or top-dose-only effect; inactive means no such curve, though single readings can be large or run the other way; tested in A549 cells; also: nearly all actives have a fitted effect of over 30% in size; inactives centre near -10
Vaccinia mCherry = inhibitors of vaccinia virus infection (mCherry reporter signal); Vaccinia virus mCherry reporter infection, fluorescence; about a quarter of the inactives have no number; Potency, µM (titrated, usually from 36.5 µM), for the others: top-dose activity change, negative = inhibition, actives largely listed as inhibitors; hit rate 0.63% among 310,000; active = well fitted inhibition curve with a large enough effect; inconclusive = small, poorly fitted or top-dose-only effect; inactive = no such curve, though single readings can be large or run the other way; tested in A549 cells; also: nearly all actives have a fitted effect of over 35% in size; inactives centre near -10
* hit, by the source's call; i = inactive; ? = inconclusive; · = no result given; & = joins results of further samples; [ ] = remark or other dose. % is scaled to controls: 0 for no effect and ±100 for the full control effect; potency is read from the fitted curve at half-maximal effect.

SMILES | VACV Venus inh | Vaccinia mCherry
COc1cc(OC)c(-c2cc(C(=O)NCc3ccc(F)cc3)c3c(-c4ccccc4)[nH]nc3n2)cc1OC | -26.4% | ?
CCCNC(=O)NC(=O)COC(=O)c1oc2ccc(OCC)cc2c1C | -7.0% | ·
CC(=O)c1ccccc1NC(=O)CCCNC(=O)c1ccc(Cl)cc1 | 18.4% | 5.8%
CCCC1S/C(=N/N=C/c2cccs2)NC1=O (configuration not stated) | -16.8% | -20.3%
COc1ccc(C2CC(c3ccccc3)=NN2S(=O)(=O)c2ccccc2)c(OC)c1 (configuration not stated) | -12.4% | -21.2%
CCOC(=O)C1=CCN(Cc2ccccc2)CC1 | -4.9% | i
CC1CN(C(=O)COC(=O)/C=C/c2ccccc2)CC(C)O1 (configuration not stated) | -22.2% | -26.2%
Nc1nc(Nc2ccc(Cl)cc2)n[nH]1 | -8.3% | ·
C=CCOc1cc(C)nc(-c2ccccc2O)n1 | -14.8% | -16.7%
CN1CC[C@@H]2CN3CCc4cccc(c43)[C@@H]2C1 | -9.4% | -16.5%
CCc1ccc(C(=O)CC2(O)C(=O)N(CN3CCOCC3)c3ccccc32)cc1 (configuration not stated) | -3.0% | -8.5%
CN1CCN(c2ccc(Cl)cc2NC(=O)c2cccc(S(=O)(=O)N(C)C)c2)CC1 | -21.4% | -29.1%
CCc1ccc(NC(=O)CSc2nc3c(oc4ccccc43)c(=O)n2-c2cccc(C)c2)cc1 | -11.4% | -6.5%
O=C1Cc2cc(S(=O)(=O)N3CCCCC3)cc3c2N1CCC3 | -13.3% | -12.4%
CN(C)c1ccc(/C=C(\NC(=O)c2ccccc2)C(=O)NCCCN2CCOCC2)cc1 | -13.3% | -20.9%
Cc1ccc(C(=O)CC(C(=O)O)n2cccn2)cc1 (configuration not stated) | 2.4% | 1.1%
COc1cc(NC(=O)c2ccc3c(c2)OCO3)ccc1NC(=O)c1cccs1 | -6.5% | i
CCOc1ccc(NC(=O)CC2C(=O)N(c3ccccc3)C(=O)N2Cc2ccc3c(c2)OCO3)cc1 (configuration not stated) | -4.0% | -0.4%
Cc1cccc(OCC(=O)O/N=C(\N)c2ccccn2)c1C | -10.3% | -11.5%
Cc1ccc(C(=O)NNC(=O)c2ccc(S(=O)(=O)N3CCOCC3)cc2)cc1 | -5.3% | -2.3%
COc1ccc(NS(=O)(=O)c2cccc(C(=O)NCC(c3ccco3)N(C)C)c2)cc1 (configuration not stated) | -2.8% | -10.8%
C=C1CCN(c2ccc(C(=O)NCc3ccc(OC)cc3)cc2[N+](=O)[O-])CC1 | ? | -17.2%
C/C(N)=C(/C#N)C(=O)COC(=O)c1cc(C)n(-c2ccc(F)cc2)c1C | 27.2%&-14.4% | ?
CCC(C)NC(=O)c1cc2c(=O)[nH]c3ccc(C)cc3c2s1 (configuration not stated) | ? | i
COc1cc(NC(=S)N2CCN(C/C=C/c3ccccc3)CC2)cc(OC)c1 | -22.1% | ?
Cc1cccc(N2CCN(C(=O)c3oc(=O)c4ccccc4c3-c3ccccc3)CC2)c1C | -17.9% | -12.6%
Cc1ccc(NC(=O)CSCC#N)cc1Cl | -19.6% | -11.3%
O=C(Nc1cccc2c1C(=O)NC2=O)c1cccc(N2C(=O)CCC2=O)c1 | -10.6% | -1.3%
Nc1ccn([C@@H]2O[C@H](CNC(=O)[C@@H](N)CSCc3ccccc3)[C@@H](O)[C@H]2O)c(=O)n1 | 2.5% | -14.8%
Cc1cccc2cc(C#N)c(SCC(=O)Nc3ccccc3N3CCOCC3)nc12 | -12.7% | -12.7%

The list goes on.
SMILES | VACV Venus inh | Vaccinia mCherry
CCc1ccc2[nH]c(=O)c(CN(CCN(C)C)C(=O)Nc3ccccc3)cc2c1 | -23.4% | ·
CCN1CCN(C(=O)CN(CC)S(=O)(=O)c2ccc(F)cc2)CC1 | -3.3% | i
Clc1nc2ccccc2cc1/C=N/Nc1nc2ccccc2[nH]1 | -19.2% | -17.9%
CCOc1ccc(CNC(=O)CSc2c3c(nc4ccc(Cl)cc24)CCCC3)cc1 | 2.7% | 1.2%
Nc1nnc(SCC(=O)NC2CCCc3ccccc32)s1 (configuration not stated) | -10.0% | -15.2%
CCC1(CC)Cc2ccccc2-c2nc(CN3CCOCC3)[nH]c(=O)c21 | -17.6% | -15.9%
Cc1ccc(-c2nc3ccccc3[nH]2)cc1NC(=O)c1sc2ccccc2c1Cl | -27.1% | -24.6%
CCC(C)NC(=O)C1CCC(CNS(=O)(=O)c2ccc3c(c2)CC(C)N3C(C)=O)CC1 (configuration not stated) | -10.5% | -4.6%
CCN1C(=O)c2ccccc2Sc2ccc(NC(=O)Nc3ccc(C(C)=O)cc3)cc21 | -27.1% | -20.7%
O=C(CSc1nnc(CNC(=O)c2ccco2)o1)Nc1ccc(F)cc1 | -5.5% | i
COc1ccc(N(C)C(=O)c2cn(C)c(=O)c3cc(OC)c(OC)cc23)cc1 | -8.4%&-4.5% | ?
CC(C)c1ccc2c(c1)CCC1C(C)(CN)CCCC21C (configuration not stated) | ? | ?
CC(=NCCCn1ccnc1)c1c(-c2ccccc2)[nH]n(-c2nc3ccccc3s2)c1=O | ? | ?
CCCn1c(NC(=O)c2ccccc2Br)nc2ccccc21 | -20.0% | -19.4%
CCCN1C(=O)/C(=c2\sc3nc(=O)c(Cc4ccc(C)cc4)nn3c2=O)c2ccccc21 | -14.8% | i
C=CCOn1c(=O)c(C)[n+]([O-])c2ccccc21 | 2.7% | ·
COCCC(=O)N1CCOCC1c1cc(C(=O)Nc2ccccc2)no1 (configuration not stated) | 2.4% | -2.8%
Cc1cc(C2(c3ccc(O)c(C)c3)OC(=O)c3ccccc32)ccc1O | -6.4% | -23.6%
CCOC(=O)c1ccc(-c2ccc(/C=C(\C#N)C(=O)Nc3cccc(C)c3)o2)cc1 | -25.9% | ?
COc1ccc(Br)cc1CNC(=O)C1CCCCN1S(=O)(=O)c1ccc(F)cc1 (configuration not stated) | -6.0% | -11.0%
Cc1ccc(Nc2nc(-c3ccncc3)cs2)cc1 | -22.9% | -22.8%
CC1(C)COC(=S)N1CCC#N | -8.5% | -11.9%
CCOCCCNC(=S)N1CCCC(c2nc3ccc(C)cc3[nH]2)C1 (configuration not stated) | -15.6% | i
C1CCN=C(Nc2nc3c(s2)CCCC3)CC1 | -18.2% | ?
O=C(Cn1cnc2c(OCc3ccccc3)ncnc21)NCC1CCCO1 (configuration not stated) | -11.8% | -13.7%
Cc1ccsc1C(=O)NCc1ccccc1Cl | -4.8% | -2.2%
CC(C)(C)OC(=O)N1CCC[C@H]1c1nnc(SCc2ccc(Cl)cc2Cl)o1 | -26.7% | ·
CCC(=O)NC(=S)Nc1ccc(NC(=O)COc2ccccc2)cc1 | -5.9% | -0.2%
Cc1ccccc1C(=O)Nc1ccc(C(=O)N/N=C/c2ccc(O)cc2)cc1 | ? | ?
O=C(/C=C/NCc1cccnc1)c1ccc(-c2ccccc2)cc1 | -27.3% | -24.5%

Carrying on.
SMILES | VACV Venus inh | Vaccinia mCherry
COc1ccc(N2CCN(C(=O)C(CCSC)N=C3NS(=O)(=O)c4ccccc43)CC2)cc1 (configuration not stated) | -9.4% | -12.5%
Cc1ccc(NC(=S)NNC(=S)Nc2ccc(C)cc2C)cc1 | ? | ?
CCN(CC)C(=O)c1sc(NC(=O)c2cccnc2)c(C(=O)OC)c1C | -8.2% | -10.4%
OCCN1CCN(c2cc(C(F)(F)F)nc3ccccc23)CC1 | -10.4% | i
CN(Cc1ccccc1)c1nc2c(c(=O)[nH]c(=O)n2C)n1C | -28.2% | -7.2%
COc1cccc(C(=O)O/N=C(\N)c2ccc([N+](=O)[O-])cc2)c1OC | -19.6% | ·
COc1ccc(C(=O)OCC(=O)Nc2ccc3[nH]c(=O)[nH]c3c2)cc1 | -9.7% | -14.9%
CCc1ccccc1N(C(=O)c1cccs1)C1C=CS(=O)(=O)C1 (configuration not stated) | -7.6% | -12.7%
CCC(C(=O)NC1CCCC1)N(C(=O)Cn1nnc(-c2ccc(C)o2)n1)c1ccc(OC)c(OC)c1 (configuration not stated) | 7.5% | 5.9%
Cn1cccc1/C=N/NC(=O)CSc1nc2ccccc2[nH]1 | -15.4% | i
CCOc1ccccc1/C=C/C(=O)NCC(=O)N1CCC(N(C)C2CCCCC2C)CC1 (configuration not stated) | -18.4% | -23.8%
Cc1ccc(NC(=O)COC(=O)CCc2nc3ccccc3n2-c2ccccc2)c(C)c1 | -1.3% | -10.4%
CCOc1ccc(N(CC(=O)Nc2ccccc2C(=O)N2CCOCC2)S(=O)(=O)c2ccc(F)cc2)cc1 | -15.9% | i
O=C(COC(=O)CCOc1ccccc1)NCCc1ccccc1 | -16.6% | -5.6%
Cc1ccc(C(c2nnnn2C(C)(C)C)N(Cc2ccco2)Cc2cccs2)cc1 (configuration not stated) | -12.0% | ·
Cc1cc(N2CCOCC2)nc2ccc(NC(=S)N3CCCCC3C)cc12 (configuration not stated) | ? | -64.2%
O=C(N/N=C/c1ccccc1O)c1ccncc1 | -18.9% | -2.4%
Cc1ccc(OCc2ccc(C(=O)N3CCCC3)o2)cc1C | -6.1% | -2.4%
CCOc1ccc(C(=O)OCC(=O)Nc2cccnc2Cl)cc1OCC | -11.0% | -13.5%
CCOC(=O)c1ccc(NC(=S)N(CCCN2CCN(C)CC2)Cc2cccs2)cc1 | -17.1% | -14.1%
Cc1ccc(SCCC(=O)Nc2ccccc2C(=O)NC2CCCCC2)cc1 | -14.9% | -11.8%
COc1ccccc1-c1cc(NC(=O)COc2ccc(C)c(C)c2)n(-c2ccccc2)n1 | -5.3% | -17.1%
COCCCN(C(=O)CSCc1ccc(C)cc1)c1c(N)n(Cc2ccccc2)c(=O)[nH]c1=O | -2.8% | -13.0%
O=C1c2ccccc2C(Nc2ccc3c(c2)OCO3)N1Cc1ccco1 (configuration not stated) | -7.3% | i
COc1ccc2oc(=N)c(C(=O)NCc3ccccc3)cc2c1 | -7.2% | -14.2%
Cc1ccc(O)c(C(=O)c2cnc3c(c2)c(-c2ccc(F)cc2)c(C#N)c(=O)n3C)c1 | -15.1% | -20.5%
O=C(O)C1CCN(C(=O)c2ccc3c(c2)OCO3)CC1 | -4.0% | -7.5%
CCN(C(=O)COc1cccnc1[N+](=O)[O-])C1CCS(=O)(=O)C1 (configuration not stated) | 5.3% | -5.6%
Cc1ccc(S(=O)(=O)N2CCN(CC(=O)N3CCOCC3)CC2)cc1 | -12.4% | -19.9%
CCOC(=O)N/N=C/C=C/c1ccccc1 | -3.5% | -1.7%

Some of the entries so far, with two lines to a compound.
Every second line gives: VACV Venus inh | Vaccinia mCherry
> CCOC(=O)N/N=C/C=C/c1ccccc1
    -3.5% | -1.7%
> CCOc1ccc(N(CC(=O)Nc2ccccc2C(=O)N2CCOCC2)S(=O)(=O)c2ccc(F)cc2)cc1
    -15.9% | i

(continued)
SMILES | VACV Venus inh | Vaccinia mCherry
CC(NCc1ccc(S(N)(=O)=O)cc1)C(=O)Nc1cc([N+](=O)[O-])ccc1Cl (configuration not stated) | -12.8% | -17.3%
COc1ccc([C@H]2CC(=O)C=C(c3ccccc3)C2)cc1OC | -23.9% | -28.0%
c1ccc(CCc2nc3ccccc3[nH]2)cc1 | -19.1% | 10.9%
Cc1noc(C)c1COc1ccc(C(=O)OCC(=O)NC(=O)C2COc3ccccc3O2)cc1 (configuration not stated) | 0.0% | i
CCCCn1nc(C(=O)N[C@@H](CCSC)c2nc3ccccc3[nH]2)c2ccccc2c1=O | 41.9%[activator] | ·
COc1ccc(S(=O)(=O)N(CC(=O)NCCSc2ccccc2)c2ccc(Cl)cc2)cc1 | -28.8% | -24.6%
O=C(/C=C/c1ccccc1)C1=C(O)C(=O)N(CCO)C1c1ccc2c(c1)OCO2 (configuration not stated) | 13.2% | 10.0%
N/C(=N\OC(=O)C1CCCCC1)c1ccncc1 | -0.9% | -14.6%
CC(C)CC1C(=O)N(Cc2cn(CCC3OCCCO3)nn2)CCS(=O)(=O)N1Cc1ccc(-c2ccc(Cl)cc2)cc1 (configuration not stated) | -27.9% | i
CC1CCN(S(=O)(=O)c2ccc3nc(N4CCN(c5ccccc5F)CC4)ccc3c2)CC1 | -1.2% | -5.0%
COc1cc2c(=O)c(C(=O)c3ccc(C)c(C)c3)cn(Cc3ccccc3F)c2cc1OC | -7.8% | -17.5%
CCCCN(CC)c1ncnc2c1sc1nc(N3CCOCC3)c3c(c12)CCCC3 | -0.8% | 2.8%
Cc1[nH]nc2c1C(c1ccsc1C)C(C#N)=C(N)O2 (configuration not stated) | -7.3% | -3.1%
Cn1cccc1C(=O)C(=O)Nc1ccc(Cl)cc1 | -10.1% | i
O=C(NC1CC1)C1CCN(C(=O)c2ccc(Cl)cc2)CC1 | -9.2% | -6.9%
Cc1nc2ccc(F)cc2cc1C(=O)Nc1cccc(Cl)c1C | 1.1% | i
O=C(N=C1SC2CS(=O)(=O)CC2N1c1ccc(Br)cc1Cl)C1CC1 (configuration not stated) | -17.9% | -6.5%
O=C(Cn1cnc2c(nnn2-c2ccccc2)c1=O)NCc1ccc(F)cc1 | -2.7% | -7.8%
Cc1cc(C(=O)OC(C)C(=O)NC2CCCCC2C)c(C)o1 (configuration not stated) | -4.5% | i
O=C(c1ccc(OC2CCN(C/C=C/c3ccc(F)cc3)CC2)cc1)N1CCCC1 | -15.6% | -0.4%
CCOC(=O)c1ccc(-c2ccc3c(=O)c4ccccc4n(C)c3c2)cc1F | ? | i
CS(=O)(=O)N(CCC#N)Cc1ccc(C=O)o1 | -5.0% | i
